Source: PubChem BioAssay (ICCB-Longwood Screening Facility, Harvard Medical School)
LANA-nucl inh: LANA-nucleosome interaction inhibition. FITC-LANA1-23 / chicken nucleosome fluorescence polarization; hits give low values. z-score (concentration not given with the values). 0.3% of 51,000 active. AID 720717;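 active = both repeat wells score below -2 in polarization z-score versus plate sample wells, excluding overly bright wells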;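 note: 100 nL library stock added to about 30 µL; numbers are from one replicate; some results filed as inactive read as strong as hits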
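test system = FITC-LANA peptide and chicken nucleosomes | amount = 240 nM purified chicken nucleosomes (480 nM peptide binding sites), final | reagent = 50 nM FITC-LANA1-23 probe | medium = TEN-BT buffer, pH 7.5 | doses = single compound addition by pin transfer, 100 nL per well | timing = 10–45 min, room temperature | detection = fluorescence polarization | repeats = duplicate plates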
Ab BasE inh: inhibitors of Acinetobacter baumannii siderophore enzyme BasE; purified BasE, fluorescence polarization binding displacement; 0.1% of 84,000 active; inhibition, % (no concentration beside the values); AID 485350;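 active = both replicates above 25% with normal brightness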;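 note: 0% = negative plate control signal and 100% = positive plate control signal; stock transfer was 100 nL into about 30 µL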
* marks the source's active call; other numbers are inactive results; / = not tested or not shown; & = joins results of further samples. Not all compounds are listed (hit frequency here may not be typical).

Structure | LANA-nucl inh | Ab BasE inh
CCCCNC(=O)Nn1c(=O)[nH]c2ccccc2c1=O | / | 2.7
O=C(NCc1cc(F)cc2c1OCOC2)c1ccc2nonc2c1 | / | 4.5
CC(=O)Nc1cccc(-c2nc3ccccc3o2)c1 | -1.2 | -0.5
N#Cc1ccc(NC(=O)Nc2cccc3ccccc23)cc1 | / | 2.7
CC(C)CN(CC(C)C)Cn1nc(C2COc3ccccc3O2)oc1=S (stereo not given) | / | 1.9
CCc1ccc(-c2csc3nc4ccccc4n23)cc1 | -0.0025 | -2.3
Cc1ccc(NC(=O)CN=C2NC(C)(C)Cc3ccccc32)cc1 | 0.42 | 2.4
Brc1cccc(-c2cn3nc(C4CC4)sc3n2)c1 | 0.099 | -3.3
COc1cccc(/C=C2/NC(=O)N(Cc3ccc(F)cc3)C2=O)c1 | / | 0.5
c1ccc2c(OCc3nc4ccccc4[nH]3)cccc2c1 | / | 1.2
CC(C)(C)c1cc(NC(=O)c2nn3c(C(F)(F)F)cc(-c4ccccc4)nc3c2Br)no1 | 1.7 | 1.7
O=C(Nc1nncs1)Oc1ccccc1 | -0.13 | 0.6
O=C(COc1ccc(Cl)c2cccnc12)c1ccc2c(c1)OCCO2 | / | 0.5
Fc1ccc(N2CCN(C3=Cc4ccccc4CC3)CC2)cc1 | -0.12 | /
CN1CCCNc2nc3ccccc3nc21 | / | 0.3
COc1ccc(N(C)C(=O)CCS(=O)(=O)c2cccc3nonc23)cc1 | 0.35 | 0.9
O=C(O)c1cc2oc3ccccc3c3ccccc3oc2cc1C(=O)Nc1ccc(F)cc1 | / | -7.2
CN1CCC/C1=c1\c(=O)n(-c2ccccc2)n2c(-c3ccc(Cl)cc3)cnc12 | / | -1.6
Cn1c(=O)c2c(c3ccccc31)OC(=O)CC2c1cccnc1 (stereo not given) | -0.33 | 0.1
CN=c1scc(C)n1/N=C/c1ccc(O)cc1 | / | 3.5
CCn1c(C)nc2cc(C(=O)N/N=C/c3ccccc3)ccc21 | / | -16
CC(OC(=O)CSc1nnc(-c2ccccc2)n1-c1ccccc1)C(=O)Nc1ccccc1C#N (stereo not given) | / | -0.8
COc1cc(/C=C2/C(=O)NN(c3ccc(Cl)cc3)C2=O)ccc1OC(=O)c1ccco1 | 0.32 | 3.6
COC(=O)c1[nH]c(Cn2cc(S(=O)(=O)N3CCCC3)ccc2=O)c(C(=O)OC)c1C | / | 1.6
CCN(CC)C(C)CN1c2ccccc2Sc2ccccc21 (stereo not given) | 0.12&-0.38&-0.52 | -1.6&-7.5
Cc1cccc(CS(=O)(=O)Cc2ccc(C(=O)NCc3cccs3)o2)c1 | -0.25 | 0.0
Cc1noc(C)c1-c1nc(-c2cccc(C(F)(F)F)c2)no1 | / | 0.1
Cc1cccc(OCc2nnc(SC(C)C(=O)c3c(C)[nH]c4ccccc34)o2)c1 (stereo not given) | / | -0.1
CCC(C)NC(=O)C1CCCN(S(=O)(=O)c2ccc(C)c(Cl)c2)C1 (stereo not given) | 0.65 | 1.8
O=C(/C=C/c1ccccc1)Oc1ccc2oc(=O)sc2c1 | / | 0.6
CC(=O)NCc1ccc(S(=O)(=O)NC2CCN(Cc3ccccc3)CC2)cc1 | / | -5.7
Cc1cccn2c(=O)c(/C=C3\SC(=S)NC3=O)c(NCC3CCCO3)nc12 (stereo not given) | -0.56 | -0.7
Cc1c(C(N)=O)cc([N+](=O)[O-])cc1[N+](=O)[O-] | 2.1 | -3.1
CCc1cccc2c(C=C(C#N)C#N)cn(CC(=O)NC3CCCC3)c12 | 0.099 | -2.4
CC(=O)NS(=O)(=O)c1ccc(Br)cc1 | / | 2.3
CCCNS(=O)(=O)c1cccc(C(=O)N2CCN(c3cccc(OC)c3)CC2)c1 | / | -0.7
COC(=O)c1cc(S(=O)(=O)NCCN2CCN(c3ccccc3F)CC2)c[nH]1 | 2.7 | 1.0
Clc1cccc(Nc2nc3ccccc3c3nncn23)c1 | -0.52 | 1.4
CSc1n[nH]c(N)c1C#N | 0.15 | -4.4
CC(C(=O)NCC1CCCO1)N(C(=O)c1snc(C(N)=O)c1N)c1cccc(F)c1 (stereo not given) | 0.21 | -1.5
O=C1CCN(C(=O)/C=C/c2ccccc2)c2ccccc21 | -1 | 0.5
O=C(NCCCN1CCCC1=O)c1ccc(CNS(=O)(=O)c2ccc(F)cc2)cc1 | 0.16 | 1.7
O=C(CN1CCN(CCN=Cc2c(O)[nH]c(=O)[nH]c2=O)CC1)Nc1ccc(Br)cc1 | -0.23 | -3.0
Cc1cc(C)n2ncnc2n1 | / | 1.6
CCOc1cc2nccnc2cc1OCC | -1.2 | 0.4
CCOc1ccccc1N(C)C(=O)c1cn(CC(C)C)c(=O)c2cc(OC)c(OC)cc12 | -0.21 | 1.6
C=CCNc1nc(N)sc1C#N | 0.79 | -4.4
COCCCNc1ncnc2ccc(Br)cc12 | -0.8 | 1.8
Cc1cccc(NC(=O)NCc2ccc3c(c2)cc(C)n3C)c1 | -0.44 | 0.8
O=C(COc1ncnc2ccccc12)Nc1ccc(N2CCCCC2)cc1 | / | -1.1
Cc1ccc2[nH]cc(NC(=O)NCc3ccco3)c(=O)c2c1 | 0.28 | 1.0
CC1(C)CC(NS(=O)(=O)c2ccccc2)CC(C)(C)N1 | 0.17 | 3.5
O=C(CCS(=O)(=O)c1ccc2c(c1)NC(=O)CS2)NCc1ccccc1 | -1.4 | -2.1
CC12CC3CC(C)(C1)CC(C(=O)NC1=NCCS1)(C3)C2 | -0.44 | 0.1
Cn1c(C(=O)NCc2ccc3c(c2)OCO3)cc2sccc21 | -0.88 | -1.2
CC1(C)C2CC=C(/C=N/NC(N)=O)C1C2 (stereo not given) | / | 0.9
CC(=O)Nc1cccc(C(=O)OC(C)C(=O)N(C)c2ccccc2)c1 (stereo not given) | / | -2.3
c1ccn(-c2ccc3nccnc3c2)c1 | 0.57 | /
COc1cc2c(cc1OC)C(C)N(C(=O)c1nccnc1C(=O)O)CC2 (stereo not given) | -0.047 | -2.5
COC(=O)C1C2C=CC3(CN(C4CCCC4)C(=O)C13)O2 (stereo not given) | -0.55 | -0.5

Next part
Structure | LANA-nucl inh | Ab BasE inh
COc1ccc(-c2cc(C(F)F)nc(-n3nc(C)cc3C)n2)cc1 | 0.42 | -2.2
N#Cc1ccc(Cn2cnc3ccccc32)cc1 | -0.91 | 2.5
Cc1ccc(-n2nnc3c(=O)n(CC#N)cnc32)cc1Cl | 0.69 | -2.3
CC(C)CNCC1OCc2ccccc2CO1 | -1.7 | -0.9
O=C(N/N=C/c1ccco1)c1cccc(N2CCCC2=O)c1 | 0.22 | 2.6
COCc1c(C(=O)O)oc2ccccc12 | / | -0.4
Cc1ccc(C(=O)N2CCCn3c2nc2ccccc23)cc1 | -0.43 | -3.1
CN(CC1COc2ccccc2O1)C(=S)NC1CCCCC1 (stereo not given) | / | 2.3
CS(=O)(=O)NCc1ccc2c(c1)OCO2 | 0.24 | 0.5
O=C(C1CCC(Cn2c(=O)[nH]c3ccsc3c2=O)CC1)N1CCCC1 (stereo not given) | -0.37 | 2.1
COC(=O)CSc1nc2ccccc2nc1SCC(=O)OC | / | 4.7
O=C(CN1C(=O)C2CC=CCC2C1=O)Nc1ccc2c(c1)CCC2 (stereo not given) | / | 0.5

Further structures.
mol,LANA-nucl inh,Ab BasE inh
COc1cccc(CNC(=O)CN2C(=O)c3cccnc3Oc3ccc(C)cc32)c1,-0.16,0.6
c1coc(CNCC2OCCCCO2)c1,-0.73,1.3
O=C(CCn1ccc2cc(S(=O)(=O)N3CCCC3)ccc21)NCc1ccccc1,/,0.1
COc1ccc2oc(C(=O)OCc3cc(=O)n4c(C)csc4n3)c(C)c2c1,/,-0.9
COc1ccccc1NC(=O)N1CCCSC1=NC1CCCCC1,/,0.4
Cc1ccc(-c2nc3cc(N=Cc4ccccc4O)ccc3o2)cc1,0.2,0.5
Cc1ccc(/C=C2\SC(=O)N(CCNC(=O)c3ccc(OCc4c(C)noc4C)cc3)C2=O)cc1,/,0.2
O=C(CSc1ccc(F)cc1)NC(=O)C1CCCCC1,/,-0.4
N#Cc1nc(COc2ccc(Cl)cc2)oc1NCc1ccco1,0.61,2.5
O=c1cc(O)c2sc3nc4c(cc3c2[nH]1)CCCC4,0.31,1.0
Cc1ccc(C(O)(C(=O)NN2CCOCC2)c2ccc(C)cc2)cc1,/,-0.8
COc1cc(OC)c2nc(C)c3c(c2c1)SCC3,/,-0.8
CCOC(=O)c1sc(N)c(C#N)c1COC(=O)C1CC(=O)N(c2ccccc2OC)C1 (stereo not given),/,-52
O=C(O)CSc1cccc[n+]1[O-],-2,/
O=C(Nc1nc(-c2ccc3c(c2)OCCO3)cs1)c1ccc(Br)s1,-1.5,1.2
CNS(=O)(=O)c1cc(Cl)ccc1Sc1ccccc1C(=O)O,-0.44,1.8
Fc1ccc(NC(=S)N2CCc3ccccc32)cc1,/,-2.1
CS(=O)(=O)NC12CC3CC(CC(C3)C1)C2,-0.75,1.1
Cc1c(S(=O)(=O)c2ccc(Cl)cc2)csc1C(=O)Nc1cc(C(F)(F)F)ccc1N1CCCC1,-0.2,/
FC(F)(F)c1cc(Nc2ccccc2)nc(-c2ccccn2)n1,0.22,/
Fc1ccc(-c2cn3ccsc3n2)cc1,0.71,-2.1
COc1ccc(CCNC(=O)C(C(C)C)N2Cc3ccccc3C2=O)c(OC)c1OC (stereo not given),0.45,1.2
CC(C)Cn1cnc2c1c(=O)[nH]c(=O)n2CC(C)C,/,-0.4
CCN=C1S/C(=C\c2ccc(O)c(OCC)c2)C(=O)N1CC,0.45,-1.1
CCN(CC)C(=S)NC(=O)c1ccccc1,/,1.5
COc1ccc(N2CCN(C(=O)COc3ccccc3-c3nnc(-c4ccccc4)o3)CC2)cc1,0.56,3.5
CCc1ccc2c(CC(=O)Nc3ccc(N4CCOCC4)cc3)coc2c1,/,0.1
Cn1c(NC(=O)c2cccs2)c(-c2cccs2)c(=O)c2ccccc21,0.091,/
O=C(NC(=S)Nc1ccccc1O)c1ccccc1,/,-1.2
O=C(NCc1ccccc1)c1cccnc1,/,1.0
O=C(NC1CCCC1)c1ccccc1-c1nc(-c2ccc(Cl)cc2)no1,-0.11,-0.8
CCOC(=O)c1c(C)[nH]c(C(=O)Cn2nnc(-c3ccccc3)n2)c1C,/,-4.1
Cc1cc(=O)oc2c1c(C)nn2CN1CCN(C)CC1,0.11,1.4
COc1ccccc1Cn1c(=O)c2ccccc2n2c(SCC(=O)N3CCOCC3)nnc12,/,-0.6
CC(=O)N1c2ccc(S(=O)(=O)N3CCC(C(=O)NCCC4=CCCCC4)CC3)cc2CC1C (stereo not given),-1.4,0.4
CC1CCN(CC(C)OC(=O)c2ccc3c(c2)OCCO3)CC1 (stereo not given),-0.81,-1.6
O=C(Cc1ccc(F)cc1)Nc1nnc(-c2ccc(F)cc2)o1,0.28,-1.7
O=C(Oc1ccc(C2=NCCS2)cc1)c1ccccc1Cl,/,1.1
C=C(C)CSc1nnc(CNC(=O)OC(C)(C)C)n1-c1ccccc1,0.097,0.3
Cc1ccsc1C(=O)Nc1ccccc1N1CCOCC1,/,0.5
C/C(=N\OCc1nc2c3cnn(Cc4ccccc4)c3ncn2n1)c1ccccc1,-0.27,-2.0
Cc1ccc(CC(C#N)Sc2nnc(-c3ccccc3F)o2)cc1 (stereo not given),/,-1.2
COc1cccc(S(=O)(=O)Nc2ccc(C(=O)N3CCCCCC3)cc2)c1,-1,-0.3
Cc1ccc(OCCOn2nnc3ccc(S(=O)(=O)N(C)C)cc32)cc1,/,0.2
CN(C)C(=O)/C(=C\c1ccccc1)NC(=O)c1ccccc1,/,-0.9
O=C(CN1CCCC1c1ccc2c(c1)OCCO2)NC(=O)Nc1ccccc1F (stereo not given),/,1.9
COC(=O)Nc1ccc(SC(F)(F)C(F)(F)C(F)(F)F)cc1,/,1.4
CCOC(=O)c1sc(NC(=O)Nc2ccc(F)cc2)nc1C,/,-1.1

Structures from the list above with a thiophene ring, fused or not:
mol,LANA-nucl inh,Ab BasE inh
Cc1cccc(CS(=O)(=O)Cc2ccc(C(=O)NCc3cccs3)o2)c1,-0.25,0.0
Cn1c(C(=O)NCc2ccc3c(c2)OCO3)cc2sccc21,-0.88,-1.2
O=C(C1CCC(Cn2c(=O)[nH]c3ccsc3c2=O)CC1)N1CCCC1 (stereo not given),-0.37,2.1
O=c1cc(O)c2sc3nc4c(cc3c2[nH]1)CCCC4,0.31,1.0
CCOC(=O)c1sc(N)c(C#N)c1COC(=O)C1CC(=O)N(c2ccccc2OC)C1 (stereo not given),/,-52
O=C(Nc1nc(-c2ccc3c(c2)OCCO3)cs1)c1ccc(Br)s1,-1.5,1.2
Cc1c(S(=O)(=O)c2ccc(Cl)cc2)csc1C(=O)Nc1cc(C(F)(F)F)ccc1N1CCCC1,-0.2,/
Cn1c(NC(=O)c2cccs2)c(-c2cccs2)c(=O)c2ccccc21,0.091,/
Cc1ccsc1C(=O)Nc1ccccc1N1CCOCC1,/,0.5

(listing goes on)
mol,LANA-nucl inh,Ab BasE inh
COCC(=O)Nc1ccccc1C(=O)N1CCN(c2ccccc2)CC1,0.42,0.9
COC(=O)c1c[nH]c2ccccc12,-0.064,1.2
O=S(=O)(Nc1cc(Cl)ccc1N1CCCCC1)c1cccc2nsnc12,/,3.7
Cc1ccc2nc(SCCCC#N)[nH]c2c1,/,0.8
c1cnc(Sc2nnc3ccccn23)nc1,/,0.1
COc1cccc(NC(=S)N(CCC(C)C)C2CCN(C(C)=O)CC2)c1,0.87,-1.8
